# TsaE inh = qHTS Assay for Inhibitors of YjeE. purified YjeE, fluorescence polarisation of a bound ADP probe. Potency, µM. 71,000 compounds, 0.05% hits. tRNA threonylcarbamoyladenosine biosynthesis protein TsaE (Escherichia coli (strain …; active = well fitted falling curve; inconclusive = weaker or top-dose-only fall, or a rising curve; inactive = flat or poorly fitted curve;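 note: top concentration of the series not given in the record; excess ADP was the control for the full effect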
#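 Fluorescence polarization of a BODIPY Texas Red–ADP probe (2 uM) bound to purified YjeE (10 uM) was read after 15 min room-temperature incubation with compounds. Loss of polarization marks inhibitors; ADP serves as titrated control.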
# Bst PK mod = Pyruvate Kinase; partly purified Bacillus stearothermophilus pyruvate kinase, luminescence ATP production; ribose 5-phosphate activator present at AC10; Potency, µM; 51,000 compounds, 1.2% hits; in the data active means potency below about 11 µM; inconclusive means mostly about 12 µM to 25 µM; inactive means weaker than that;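 the screen sought inhibitors and activators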;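 note: potency is the fitted concentration of half-maximal effect; scaled between full activation by ribose 5 phosphate and full inhibition by luteolin; about four in five hits inhibit and the cells do not say which; series up to 57 µM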
# * = called active by the depositor; i = inactive; ? = inconclusive; · = no result given.
SMILES,TsaE inh,Bst PK mod
COC(=O)c1ccc(NS(=O)(=O)c2ccc(SC)cc2)cc1,i,>57
COCCOCC(O)CN1CCN(c2ccc(C)cc2)CC1 (configuration not stated),i,>57
NC(N)=N/N=C(\c1ccc(Cl)cc1)C1CC1,i,·
O=C(Cc1cccs1)N1CCCC(c2nc3c(nnn3Cc3ccccc3Cl)c(=O)[nH]2)C1 (configuration not stated),i,>57
Cc1cc(Nc2cccc(F)c2)n2ncnc2n1,i,·
O=C(O)c1cc2ccccc2c(Cc2cc3ccccc3c(C(=O)O)c2O)c1O (tested in a mixture with another compound),i,·
CC1CCN(CCCNC(=O)c2ccc(CS(=O)(=O)Cc3ccccc3F)o2)CC1,i,>57
Cc1cc(C(F)(F)F)nn1Cc1ccc(C(=O)NCc2ccco2)o1,i,>57
O=C(c1cccc(F)c1)N1CCC[C@@]2(CCN(Cc3ccccc3)C2)C1,i,·
N[C@H](Cn1ccc(=O)n(Cc2ccccc2C(=O)O)c1=O)C(=O)O,i,·
COc1ccccc1C1(CC(=O)O)CCOC(C(C)C)C1 (configuration not stated),i,>57
Cc1nc2ccc(Cl)cc2[nH]1,i,·
Cc1cc(=O)oc2cc(OCC(=O)NCc3cccnc3)ccc12,·,>26
Cc1cc(C)nc(SC(C)C(=O)Nc2ccc(S(N)(=O)=O)cc2)n1 (configuration not stated),i,>57
COc1cccc(OC)c1Oc1ccc(C(F)(F)F)cn1,i,>57
CCOCCOC(=O)C1=C(C)N(C)C(=O)NC1c1ccccc1F (configuration not stated),i,>57
Cc1ccc(S(=O)(=O)N2CCN(C(=O)CSc3nc4ccccc4o3)C2)cc1,i,>57
CCc1c(C)nc(SCC(=O)Nc2ccc(Br)cc2)[nH]c1=O,i,·
C=CCn1c(COc2ccc(CC)cc2)nnc1SC/C(O)=C(\C#N)c1nc2ccccc2[nH]1,i,>57
Cc1ccc(C(C(=O)NC2CCCC2)N2CCCCC2)cc1 (configuration not stated),i,·
CCOc1ccc(CN2CCN(C(=O)c3ccccc3)CC2)cc1,i,>57
CCCC1C(c2ccc(OC)cc2)C(C#N)(C#N)C2(C#N)CC1(N)NC2=O (configuration not stated),·,>26
CCOC(=O)Cc1csc(NC(=O)c2cccc(OC)c2)n1,i,·
CCc1nnc(NC(=O)c2c(O)c3c([nH]c2=O)CCCC3)s1,·,>26

# 2 of the compounds above, with values under each structure.
# Screens in order: TsaE inh | Bst PK mod
- COc1cccc(OC)c1Oc1ccc(C(F)(F)F)cn1
 : i | >57
- C=CCn1c(COc2ccc(CC)cc2)nnc1SC/C(O)=C(\C#N)c1nc2ccccc2[nH]1
 : i | >57

# (list continues)
SMILES,TsaE inh,Bst PK mod
O=C(O)C1CCN(S(=O)(=O)c2ccc(Oc3ccccc3)cc2)CC1,i,>57
O=C1CC(C(=O)N(c2cccc(F)c2)C(C(=O)NC2CCCC2)c2ccccn2)CS1 (configuration not stated),i,>57
CCS(=O)(=O)N1CCCC(C(=O)NCc2cccnc2)C1 (configuration not stated),i,>57
CCOc1cc(C(=O)N(C)Cc2cc3cc(OC)ccc3[nH]c2=O)cc(OCC)c1OCC,i,>57
CCc1cc2c(=O)c(-c3nc4ccccc4n3C)coc2c(CN2CCN(C)CC2)c1O,i,>57
Cc1cc(NCCN2CCOCC2)n2c(nc3ccccc32)c1C#N,i,>57
Cc1cccc2cc(C#N)c(SCCN3CCCCC3)nc12,i,>57
O=C1Nc2ccccc2C12OC1CCCCC1O2 (configuration not stated),i,>57
CCOC(=O)N1CCC(Nc2c(NCCCN3CCN(c4ccc(OC)cc4)CC3)c(=O)c2=O)CC1,i,>57
Cc1cccc(NC(=O)c2c(C)cc(=O)oc2C)n1,·,>26
CC(NC(=O)C1C2C=CC(C2)C1C(=O)O)c1ccccc1 (configuration not stated),i,>57
Fc1ccc(C2C3=C(Nc4ncnn42)c2ccccc2OC3c2ccncc2)cc1 (configuration not stated),·,>11
COc1ccc(C(O)Cc2nc3ccccc3n2C)cc1OC (configuration not stated),i,·
COc1ccc2cc3cc(C(=O)N4CCN(Cc5ccc6c(c5)OCO6)CC4)oc3nc2c1,i,·
CCCCOc1ccccc1C1CC(=O)NC2=C1C(=O)CCC2 (configuration not stated),i,>57
CCOC1(C(F)(F)F)NC(=O)N(Cc2ccc(OC)cc2)C1=O (configuration not stated),i,>57
COc1cc(C2CC(=O)N3CN(c4ccccc4C)CSC3=C2C#N)cc(OC)c1OC (configuration not stated),i,>57
COc1cccc(C2C(C(=O)c3sc(C)nc3C)=C(O)C(=O)N2CCN2CCOCC2)c1 (configuration not stated),i,>57
C/C(=C\C(=O)Nc1nccs1)c1ccccc1,i,i
CCOC(=O)c1oc2nc(C(C)C)c3c(c2c1N)CCC3,i,>57
Cc1nc2nc(-c3ccccc3)cc(=O)n2[nH]1,i,·
O=c1c(-c2cccc(F)c2)nc2cncnc2n1-c1ccccc1,i,·
CC(=O)N1CCC2(CCCN(c3ccncc3)C2)CC1,i,·
O=C(COc1ccccc1O)Nc1ccccc1Cl,i,·
COc1ccccc1C(=O)Nc1ccc(N2CCN(Cc3ccccc3)CC2)cc1,i,>57
O=C(c1cccs1)N1CCN(Cc2ccncc2)CC1,i,>57
CC1c2[nH]c3ccccc3c2CCN1S(C)(=O)=O (configuration not stated),i,·
CCOc1ccccc1N(CC(=O)Nc1ccc2c(c1)OCO2)S(C)(=O)=O,i,·
CSc1ccccc1NC(=O)c1cc(CC(C)C)on1,i,·
Cc1ccc(NC2c3ncccc3C(=O)N2c2ccccc2C)cc1C (configuration not stated),i,>57
O=C(NCC1CCCO1)c1coc2nc3ccccc3nc12 (configuration not stated),i,>57
CC(=O)NC(Cc1ccccc1)C(=O)NC1CCN(C(=O)NC2CCCCC2)CC1 (configuration not stated),i,>57
CC1(C(=O)NC2CCCCCCC2)CCC(=O)N1CCN1CCOCC1 (configuration not stated),i,>57
COc1ccc(CC(=O)NC2CCN(CC(=O)Nc3ccc4c(c3)OCCO4)CC2)cc1OC,i,>57
Cc1cc(C(=O)OCC(=O)Nc2ccc(F)cc2F)c(C)o1,i,>57
CCOC(=O)CC(=O)CSC1=C(C#N)C(c2ccccc2OC)CC(=O)N1 (configuration not stated),i,>57

# Five compounds drawn at random from the list so far, as already listed:
SMILES,TsaE inh,Bst PK mod
O=C(c1cccs1)N1CCN(Cc2ccncc2)CC1,i,>57
Cc1ccc(NC2c3ncccc3C(=O)N2c2ccccc2C)cc1C (configuration not stated),i,>57
CCOc1ccccc1N(CC(=O)Nc1ccc2c(c1)OCO2)S(C)(=O)=O,i,·
Cc1cc(C(=O)OCC(=O)Nc2ccc(F)cc2F)c(C)o1,i,>57
COc1ccccc1C(=O)Nc1ccc(N2CCN(Cc3ccccc3)CC2)cc1,i,>57

# Later entries:
SMILES,TsaE inh,Bst PK mod
Cc1noc(C)c1C(=O)N1CCC2(CCN(Cc3nccs3)CC2)CC1,i,·
CCOC(=O)N1CCN(C(=O)c2nn(-c3ccc(C)cc3)c(=O)c3c2c2ccccc2n3C)CC1,i,>57
CCCS(=O)(=O)N1CCCC(C(=O)NCCN2CCCCC2C)C1 (configuration not stated),i,>57
Cc1ccc(Cn2ccc(NC(=O)c3noc4c3CCCCC4)n2)cc1,i,>57
CCCCC(=O)Nc1ccc(C(=O)NCc2ccncc2)cc1,i,>57
CCC(=O)Nc1nc(C)cc(SCC(=O)OC)n1,i,>57
CC(C)Oc1ccc(C(=O)NCc2cccnc2)cc1,i,·
CCCCNC(=O)c1cc2c(-c3ccc(Cl)cc3)nn(C)c2s1,i,·
O=[N+]([O-])c1c(Cl)cc(Cl)cc1Cl,i,·
COc1ccc(-c2nc3cnc(N4CCNCC4)nc3n(Cc3cccs3)c2=O)cc1,i,·
COc1cc(OC)c(C2N(c3cc(C)on3)C(=O)C3CCCN32)cc1OC (configuration not stated),i,>57
O=C(NO)c1ccc(OC(F)F)cc1,i,>57

# Part of the list above, as labelled records:
canonical_smiles: Cc1noc(C)c1C(=O)N1CCC2(CCN(Cc3nccs3)CC2)CC1
  TsaE inh: i
  Bst PK mod: ·

canonical_smiles: CCOC(=O)N1CCN(C(=O)c2nn(-c3ccc(C)cc3)c(=O)c3c2c2ccccc2n3C)CC1
  TsaE inh: i
  Bst PK mod: >57

canonical_smiles: CCCS(=O)(=O)N1CCCC(C(=O)NCCN2CCCCC2C)C1 (configuration not stated)
  TsaE inh: i
  Bst PK mod: >57

canonical_smiles: Cc1ccc(Cn2ccc(NC(=O)c3noc4c3CCCCC4)n2)cc1
  TsaE inh: i
  Bst PK mod: >57

# Next entries:
SMILES,TsaE inh,Bst PK mod
CCN(CC)S(=O)(=O)c1ccc2c(c1)c(C(=O)O)cn2C,·,>11
Cc1ccc(OCC(=O)OC2CCS(=O)(=O)C2)cc1 (configuration not stated),i,>57
Cn1nnnc1SCC1=C(C(=O)O)N2C(=O)[C@@H](NC(=O)[C@@H](O)c3ccccc3)[C@@H]2SC1,i,·
CC(Sc1nc(-c2ccccc2)cc(C(F)(F)F)n1)C(=O)N1CCC(C(N)=O)CC1 (configuration not stated),i,>57
N#CCCn1nnc(-c2ccccc2F)n1,i,·
C=CCOc1ccc(/C(O)=C2\C(=O)C(=O)N(CCCOC)C2c2ccc(O)c(OC)c2)cc1 (configuration not stated),i,>57
CC(C)CCC[C@@H](C)[C@@H]1CC[C@@H]2[C@H]3CC[C@H]4C[C@@H](N)CC[C@@]4(C)[C@@H]3CC[C@]21C,i,·
Cc1c(C(=O)NCC2CCCO2)oc2ccc(S(=O)(=O)N3CC(C)CC(C)C3)cc12 (configuration not stated),i,·
O=C(Cn1ncc2c1-c1ccccc1OC2)N1CCc2ccccc21,i,·
O=C(CSc1nc2[nH]ncc2c(=O)n1-c1ccccc1)N1CCCc2ccccc21,i,>11
CCOc1ccccc1C(=O)NCCCCCC(=O)O,·,>26
CC(NC(=O)Cn1cc2c(n1)CCCCC2)c1ccccc1 (configuration not stated),i,·
O=C(O)c1c(-c2ccccc2)c2oc3ccccc3c2[nH]c1=O,i,>57
COc1ccc(-c2cc(C(=O)NC3CCCC3)no2)cc1OC,i,>57
CCOc1ccc(C(=O)NCC(C)CN(C)C)cc1OCC (configuration not stated),i,>57
O=S(=O)(c1ccc(Sc2nnc3ccccn23)nc1)N1CCOCC1,i,>57
Cc1cnc(C(=O)Nc2cccc3cccnc23)cn1,i,>57
O=C(NC1=NCCS1)NC12CC3CC(CC(C3)C1)C2,i,>57
COc1ccccc1C(=O)Nc1ccc(C(=O)O)cc1,i,>57
COc1ccc(CCNC(=O)CCn2c(=O)oc3ccccc32)cc1OC,i,·
Cc1cccc(C)c1NC(=O)CS(=O)CC(=O)NC1CCCc2ccccc21 (configuration not stated),i,>57
C(=N\n1cnnc1)/c1ccc2ncccc2c1,i,>11
O=C(Nc1ccc2c(c1)OCO2)c1c(Cl)nc2sccn12,i,>57
CC(C)(Oc1ccc(Cl)cc1)C(=O)Nc1ncccn1,i,·

# Rewritten bar-delimited: part of the list above.
structure | TsaE inh | Bst PK mod
O=C(NC1=NCCS1)NC12CC3CC(CC(C3)C1)C2 | i | >57
COc1ccccc1C(=O)Nc1ccc(C(=O)O)cc1 | i | >57

# Following part:
SMILES,TsaE inh,Bst PK mod
c1ccc(CCCNc2nnnc3ccccc23)cc1,i,·
CCC(=O)Nc1nc2cc(OC)ccc2s1,i,·
CC(=O)NC(CCS(C)(=O)=O)C(=O)Nc1cccc(C)c1C (configuration not stated),i,·
COCC(=O)N1CCC2(CCCN(C(=O)Nc3cccc(C#N)c3)C2)CC1,i,·
CN(Cc1ccco1)c1cc(-c2cccnc2)ncn1,i,·
CC(=O)c1cccc(N=C2C(=O)Nc3ccccc32)c1,i,>57
Cn1c(C(=O)N2CCCC(C(=O)NCCCc3ccccc3)C2)cc2sccc21 (configuration not stated),i,>57
COc1ccc2c(c1)CCc1c(C(=O)NCCc3ccc(OC)c(OC)c3)noc1-2,i,>57
CCC[C@@H]1C[C@@]1(CCC)C(NC(=O)c1ccc(-c2ccccc2)cc1)c1cccc(Cl)c1 (some centres not stated),i,·
Cc1cnc(CNc2ccnc(-c3ccc(C(=O)N(C)C)cc3)n2)cn1,i,·
CC(C)C[C@@H](CC(=O)N[C@@H](CCCN)CC(=O)N[C@@H]1CCCC[C@H]1C(=O)N[C@H](CC(=O)N[C@@H](CCC(=O)O)CC(=O)O)Cc1ccccc1)NC(=O)[C@@H]1CNCC[C@H]1N,?,·
COc1ccc(Cn2nnnc2C(c2cccs2)N2CCOCC2)cc1 (configuration not stated),i,>57
COc1ccccc1CNc1ccnc(-c2cccnc2)n1,i,·
CCOC(=O)Cn1nnc(-c2ccc(OCC(C)C)cc2)n1,i,>57
Nc1nc(SC/C=C\c2ccccc2)c2[nH]cnc2n1,i,·
COc1ccc(C2=Nn3c(nnc3-c3cccnc3)SC2)cc1,i,·
C=CCn1c(NCCO)nc2sc3c(c2c1=O)CCC3,i,·
C=CCn1c(SCC(=O)O)nnc1-c1ccc(C(C)(C)C)cc1,i,·
O=C(CCN1C(=O)C2C3C=CC(C3)C2C1=O)NCCc1ccccc1 (configuration not stated),i,>57
CC(C)c1ccc(/C=C2\C=C(c3ccc4ccccc4c3)OC2=O)cc1,i,·
CC(CNC(=O)C1CCCCC1)NC(=O)C1CCCCC1 (configuration not stated),i,·
CN1C(=O)C2(C(C#N)=C(N)Oc3n[nH]c(-c4ccc(Cl)cc4)c32)c2ccccc21 (configuration not stated),i,>57

# Compound activity as filed in PubChem.

# Some of the compounds tested, so the mix of outcomes need not match the whole.
